PKD1 kinase inh – inhibitors of human PKD1 kinase. Q15139. PKD1 kinase fluorescence polarization assay. inhibition, %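 (about 10 µM by stock and volumes)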. 200,000 tested, 0.056% active;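 active = inhibition of 50% or more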;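 also: controls were vehicle for no effect and a reference inhibitor for full effect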
INS promoter inh – TRM-6 insulin promoter activity inhibition; inhibition, % at 2 µM; TRM-6 cells (human fetal islet line), insulin promoter-eGFP reporter, imaging; reporter expression induced with tamoxifen; 130,000 tested, 0.9% active;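 active = inhibition above the mean plus 3 SD, with well images judged a real hit on visual review, cut at about 60% in these data, passing the limit was not always enough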
RGS16-Gao HTS – RGS16-Galphao interaction regulator (human) | bead-based flow cytometry RGS16-Galphao binding, fluorescence; actives lie on both sides | 220,000 tested, 0.38% active | O15492+P09471 | binding response (% of control), % at 10 µM;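 active = below 25% or above 175%, edge rows of some plates excepted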;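 also: Galphao activated by GDP with aluminum fluoride before binding; 100% = wells without compound and 0% = beads without RGS; some results beyond the cut were filed as inactive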
Target sequence (O15492 whole entry, looked up): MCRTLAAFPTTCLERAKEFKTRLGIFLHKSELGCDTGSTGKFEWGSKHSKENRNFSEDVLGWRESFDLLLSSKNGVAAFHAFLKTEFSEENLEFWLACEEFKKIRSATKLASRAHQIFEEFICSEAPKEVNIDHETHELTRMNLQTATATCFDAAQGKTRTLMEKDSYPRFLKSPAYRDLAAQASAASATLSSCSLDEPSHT
Target sequence (P09471 whole entry, looked up): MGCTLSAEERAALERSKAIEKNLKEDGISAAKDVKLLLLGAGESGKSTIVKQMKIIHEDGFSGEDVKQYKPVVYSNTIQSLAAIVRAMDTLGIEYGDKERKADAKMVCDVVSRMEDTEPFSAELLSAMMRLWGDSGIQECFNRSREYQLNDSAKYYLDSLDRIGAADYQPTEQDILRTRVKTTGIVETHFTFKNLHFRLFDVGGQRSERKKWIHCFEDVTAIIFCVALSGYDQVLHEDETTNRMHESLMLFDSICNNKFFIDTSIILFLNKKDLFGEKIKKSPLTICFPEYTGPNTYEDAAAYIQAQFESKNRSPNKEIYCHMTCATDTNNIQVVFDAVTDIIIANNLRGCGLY
HSV augment – increases HSV replication in cells | HSV replication augmentation in cells, fold increase | maximum fold increase | 220,000 tested, 0.005% active;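 active = peak rise of 1.5-fold or more in the series; tested in PC3 cells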;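 also: first round at 10 µM; read as green reporter fluorescence; hits show the peak of a series up to 25 µM; 1 = signal of infected wells without compound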
GALR2 agonist – activates the human galanin receptor 2; O43603; GALR2-expressing cells, agonist activation read-out; 140,000 tested, 0.48% active; activation, %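 (tested at 5 µM)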;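 active = above mean plus 3 SD of all compounds, about 5% in these data, not always enough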;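 also: 0% = vehicle buffer wells and 100% = reference agonist at full effect; tested in CHO reporter cells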
Target sequence (O43603 whole entry, looked up): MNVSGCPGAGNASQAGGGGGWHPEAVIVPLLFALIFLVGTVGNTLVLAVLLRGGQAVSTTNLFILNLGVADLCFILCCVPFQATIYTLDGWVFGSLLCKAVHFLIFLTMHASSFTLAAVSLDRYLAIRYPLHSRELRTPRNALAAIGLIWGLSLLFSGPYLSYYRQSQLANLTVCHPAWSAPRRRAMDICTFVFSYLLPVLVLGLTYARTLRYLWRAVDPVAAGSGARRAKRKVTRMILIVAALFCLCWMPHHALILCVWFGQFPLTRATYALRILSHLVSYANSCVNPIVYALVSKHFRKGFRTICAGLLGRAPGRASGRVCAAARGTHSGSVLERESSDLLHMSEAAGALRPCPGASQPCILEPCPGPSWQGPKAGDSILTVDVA
INS promoter inh cell count – recorded beside INS promoter inh, whose call it bears; normalized cell count, %; measured here: cell count, toxicity; reference of the scale not given here;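 cells exposed to compound for 48 h; stained nuclei by imaging scaled within each plate; lower means fewer cells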
HSV augment primary fold – recorded beside HSV augment, whose call it bears; fold increase; compound at 10 µM; measured here: primary screen fold increase 10 uM; tested in PC3 cells;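 GFP signal in the first replicate; 1 = infected wells without compound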
Active calls of the source: *; i = inactive; / = not tested or not shown.

nr | compound | PKD1 kinase inh | INS promoter inh | INS promoter inh cell count | RGS16-Gao HTS
1 | Cc1ccc(/C=C/C(=O)O)cc1S(=O)(=O)Nc1ccc(C(=O)O)cc1 | / | / | / | 87.0
2 | Cc1cc(C)c(S(=O)(=O)/N=C2\C=CC(=O)C(Cl)=C2)c(C)c1 | 4.9 | -51.6 | 125.5 | 305.9
3 | O=C(CNC(=O)c1ccco1)N/N=C/c1c[nH]c2ccccc12 | 0.0 | 25.7 | 75.8 | 105.1
4 | Cc1ccccc1C(=O)NNc1ncnc2c1cnn2C | -7.0 | 16.7 | 126.6 | 103.7
5 | COc1ccc(-c2[nH]n(-c3ccc([N+](=O)[O-])cc3)c(=O)c2C=NCc2ccncc2)cc1 | -9.9 | 25.9 | 73.6 | 108.2
6 | O=C(CN(Cc1ccco1)C(=O)CNS(=O)(=O)c1ccc(Cl)cc1)NCC1CCCO1 (centres undefined) | / | / | / | 102.1
7 | CN(C)c1c(N)[nH]c2c(c1=O)c(=O)n(C)c(=O)n2C | 27.8 | / | / | 111.2
8 | Cc1ccc(S(=O)(=O)NCCCCCC(N)=O)cc1 | 0.5 | 0.0 | 129.4 | 105.6
9 | Cn1ncc(N=Cc2ccccc2[N+](=O)[O-])c1C(N)=O | / | / | / | 96.8
10 | Clc1cc(Cl)c2nc(N3CCCC3)sc2c1 | -11.3 | / | / | /

nr | HSV augment | HSV augment primary fold | GALR2 agonist
1 | i | 1.05 | /
2 | i | 1.01 | -1.8
3 | i | 0.8 | /
4 | i | 0.92 | /
5 | i | 0.96 | -0.6
6 | i | 0.88 | /
7 | i | 0.84 | 0.0
8 | i | 1.02 | -0.4
9 | i | 1.03 | /
10 | i | 0.96 | 0.5

Among those listed so far, these have a halogen.
nr | compound | PKD1 kinase inh | INS promoter inh | INS promoter inh cell count | RGS16-Gao HTS
2 | Cc1cc(C)c(S(=O)(=O)/N=C2\C=CC(=O)C(Cl)=C2)c(C)c1 | 4.9 | -51.6 | 125.5 | 305.9
6 | O=C(CN(Cc1ccco1)C(=O)CNS(=O)(=O)c1ccc(Cl)cc1)NCC1CCCO1 (centres undefined) | / | / | / | 102.1
10 | Clc1cc(Cl)c2nc(N3CCCC3)sc2c1 | -11.3 | / | / | /

nr | HSV augment | HSV augment primary fold | GALR2 agonist
2 | i | 1.01 | -1.8
6 | i | 0.88 | /
10 | i | 0.96 | 0.5

Remaining list, next part
nr | compound | PKD1 kinase inh | INS promoter inh | INS promoter inh cell count | RGS16-Gao HTS
11 | Cc1cc(OCc2nc(-c3ccc(NC(=O)c4cccnc4)cc3)no2)ccc1Cl | -0.9 | 6.8 | 106.2 | 103.2
12 | COc1ccc(N(CC(=O)N/N=C/c2ccc3c(c2)OCO3)S(=O)(=O)c2ccccc2)cc1 | -2.3 | -78.6 | 139.0 | 98.7
13 | CNC(=O)C1CC(=O)N(CCc2ccccc2)C(=Nc2ccc(OC)cc2)S1 (centres undefined) | -3.0 | / | / | 103.7
14 | CCN1CCN(S(=O)(=O)c2ccc(Oc3ccccc3OC)cc2)CC1 | -2.9 | / | / | 98.5
15 | CCNS(=O)(=O)c1ccc(NC(=O)Nc2cccc(OC)c2)cc1 | 0.5 | 35.8 | 171.4 | 100.0
16 | O=C(Nc1ccc(O)cc1)c1cc2n(n1)C(C(F)(F)F)CC(c1ccco1)N2 (centres undefined) | -14.5 | / | / | 94.7
17 | Cc1ccccc1CNc1ccc(C(CC(N)=O)NC(=O)c2ccc(Br)cc2)cc1[N+](=O)[O-] (centres undefined) | / | / | / | 98.4
18 | O=C(CCCOc1ccc(Cl)cc1Cl)Nc1ccncc1 | -1.0 | 38.9 | 171.3 | /
19 | Cc1ccc(C(=O)Nc2sc3c(c2C#N)CCCCC3)cc1C | -7.3 | 27.6 | 64.3 | 100.7
20 | O=C(NCCC1=CCCCC1)c1ccc(Br)o1 | -0.1 | 3.0 | 207.1 | 92.3

nr | HSV augment | HSV augment primary fold | GALR2 agonist
11 | i | 0.74 | -0.8
12 | i | 0.84 | /
13 | i | 0.84 | /
14 | i | 0.99 | /
15 | i | 0.71 | -2.2
16 | i | 0.79 | -1.3
17 | i | 0.86 | /
18 | i | 0.91 | -1.8
19 | i | 0.93 | -2.9
20 | i | 0.96 | -6.7

The results go on:
nr | compound | PKD1 kinase inh | INS promoter inh | INS promoter inh cell count | RGS16-Gao HTS
21 | COC(=O)Cc1c(C)c2ccc(OC(=O)c3ccco3)cc2oc1=O | -3.0 | -168.8 | 95.5 | 103.1
22 | Cc1nccc(-c2ccc(-n3c(C)ccc3C)cc2)n1 | -2.2 | -55.6 | 107.6 | 99.8
23 | O=C(NC(=S)N1CCCCC1)c1csc([N+](=O)[O-])c1 | / | / | / | 95.9
24 | CCOC(=O)c1c(C)[nH]c(NC(=O)N2CCOCC2)c1C | 7.2 | / | / | 100.0
25 | Cc1ccc2nc(C(Cl)(Cl)Cl)nc(N/N=C/c3ccncc3)c2c1 | -1.9 | 20.0 | 131.7 | 97.3
26 | Cc1cc(C)nc(N2CCCC(C(=O)NC3CCCC3)C2)n1 (centres undefined) | 1.6 | -64.3 | 80.9 | 101.3
27 | COCCNC(=O)COc1cc(=O)n(C)c2ccccc12 | 10.1 | / | / | 95.3
28 | c1ccc(SCc2nc3ccccc3[nH]2)nc1 | -8.4 | 21.7 | 126.9 | 99.0
29 | COC(=O)CNC(=O)C1Cc2ccccc2CN1S(=O)(=O)c1cccs1 (centres undefined) | / | / | / | 93.8
30 | COc1cccc(CNC(=O)CCCNS(=O)(=O)c2cccs2)c1 | -0.4 | 18.2 | 104.1 | 84.6

nr | HSV augment | HSV augment primary fold | GALR2 agonist
21 | i | 0.89 | 2.9
22 | i | 0.99 | /
23 | i | 0.86 | /
24 | i | 0.99 | -1.5
25 | i | 0.96 | /
26 | i | 0.94 | -1.9
27 | i | 0.93 | -1.5
28 | i | 1.06 | -2.7
29 | i | 0.77 | /
30 | i | 0.93 | -1.5

(cont.)
nr | compound | PKD1 kinase inh | INS promoter inh | INS promoter inh cell count | RGS16-Gao HTS
31 | NS(=O)(=O)c1ccc(CCNC(=O)CCCn2c(SCC(=O)N3CCCC3)nc3ccsc3c2=O)cc1 | 0.5 | -18.9 | 99.2 | 103.0
32 | Cc1ccc(S(=O)(=O)N/N=C(\c2ccccc2)c2cccnc2)cc1 | -5.6 | 31.4 | 110.1 | 96.6
33 | O=C(Nc1ccccc1)C1=C[C@H](C2CCCCC2)C[C@H](OCc2ccc(CO)cc2)O1 | 5.1 | / | / | 99.3
34 | CCCC(=O)NCCSC | 1.2 | 22.2 | 114.3 | 97.0
35 | Cc1ccccc1NC(=O)c1c(Cl)nc(C)c(Cl)c1C | 3.5 | -156.2 | 121.8 | 100.3
36 | CCOC(=O)c1cn(-c2nc(-c3ccc(Cl)c(Cl)c3)cs2)c2c(F)c(N3CCOCC3)c(F)cc2c1=O | 1.6 | 9.7 | 72.4 | 104.0
37 | O=C(Nc1ccc(S(=O)(=O)Nc2ncccn2)cc1)c1ccccc1NS(=O)(=O)c1ccc(Cl)cc1 | / | / | / | 107.3
38 | Fc1ccc(N2CCN(Cc3cnc(N4CCOCC4)s3)CC2)cc1 | -2.7 | / | / | 98.4
39 | COCCCNc1nc(SCc2ccccc2)nc2sc3c(c12)CCC3 | -6.4 | -17.1 | 101.5 | 96.3
40 | c1ccc(-c2cc3nccc(-c4ccccn4)n3n2)cc1 | 8.0 | / | / | 102.2

nr | HSV augment | HSV augment primary fold | GALR2 agonist
31 | i | 0.93 | /
32 | i | 1.05 | /
33 | i | 0.96 | /
34 | i | 0.95 | -1.2
35 | i | 0.97 | 0.2
36 | / | / | -0.3
37 | i | 0.84 | /
38 | i | 0.91 | /
39 | i | 0.94 | 0.3
40 | i | 1.01 | 1.0

Further results follow.
nr | compound | PKD1 kinase inh | INS promoter inh | INS promoter inh cell count | RGS16-Gao HTS
41 | CCOc1ccccc1N1CCN(C/C=C/c2ccc(N(C)C)cc2)CC1 | -3.6 | -39.3 | 97.2 | 93.7
42 | Cc1c(C#N)c(NC(=O)c2ccccc2)n(Cc2ccccc2)c1C | -5.8 | -20.0 | 92.8 | 112.4
43 | O=[n+]1cc(-c2ccc(Cl)cc2)n([O-])c2c1CCCCC2 | -3.7 | 60.0 | 87.6 | 105.1
44 | CCOC(=O)c1c(NC(=S)NC(=O)/C=C/c2cccs2)sc(C)c1C | -1.0 | / | / | 101.6
45 | CCOC(=O)C1(Cc2cccc(F)c2)CCN(C(=O)Cn2cnnn2)CC1 | / | / | / | 101.2
46 | Cc1nn(C)cc1/C=N\NC(=O)c1ccc2c(c1)c(C)c(C)n2Cc1ccccc1 | 5.7 | 18.9 | 130.8 | 105.2
47 | CCNC(=O)O/N=C(\C)c1sc(-c2ccc(Cl)cc2)nc1C | 6.4 | -6.0 | 92.4 | 70.9
48 | CCC(C)[C@H](NC(=O)OC(C)(C)C)C(=O)N/N=C/c1ccc2cc(OC)ccc2n1 (some centres undefined) | -2.6 | / | / | 64.8
49 | CC(=O)NCC1(O)CCCC(C)C1 (centres undefined) | / | / | / | 102.8
50 | CC1CCCC(C)N1CCCNC(=O)c1cc2c(=O)n(C)c3ccccc3c2n1C (centres undefined) | -11.8 | / | / | 98.6

nr | HSV augment | HSV augment primary fold | GALR2 agonist
41 | i | 0.97 | -0.5
42 | i | 0.86 | -0.4
43 | i | 0.92 | -1.4
44 | i | 0.95 | -0.8
45 | i | 1.1 | /
46 | i | 0.88 | -0.7
47 | i | 0.68 | -1.1
48 | i | 1 | 0.3
49 | i | 1.14 | /
50 | i | 1.04 | -2.6

Going on with the list:
nr | compound | PKD1 kinase inh | INS promoter inh | INS promoter inh cell count | RGS16-Gao HTS
51 | C/C(=N\NC(=O)CSc1nc2ccccc2o1)c1ccc(O)cc1 | 8.7 | 33.3 | 110.8 | 92.7
52 | COc1ccc(N2CCN(S(=O)(=O)c3ccc(C(=O)NC4CCCC4)cc3)CC2)cc1 | 4.1 | 68.4 | 76.7 | 93.2
53 | O=C(CSc1nc(-c2ccc(F)cc2)cc(C(F)(F)F)n1)Nc1ccc2c(c1)OCO2 | -10.4 | 13.3 | 132.7 | 94.3
54 | COc1cccc(N2CCN(c3ncnc4c3cnn4-c3ccc(C)cc3C)CC2)c1 | -8.8 | / | / | 55.0
55 | COCCn1c(C)cc(C(=O)CN2C(=O)NC3(CCCCCCC3)C2=O)c1C | -10.8 | / | / | 103.4
56 | CCOC(=O)c1sc2c(c1C)C(c1cccs1)C1=C(CCCC1=O)N2 (centres undefined) | -9.8 | / | / | 102.3
57 | O=C(NCCCl)Nc1cccc(Br)c1 | -0.2 | / | / | 98.8
58 | COc1cccc(OCCSc2nnc3sc4ccccc4n23)c1 | -6.7 | -41.0 | 101.1 | 101.0
59 | N#CCO/N=C(\c1ccccc1)c1ccncc1 | -2.4 | 0.0 | 124.3 | 106.1
60 | CCCCC(=O)Nc1ccc(C(=O)NNC(=O)c2ccco2)cc1 | 9.1 | / | / | 103.4

nr | HSV augment | HSV augment primary fold | GALR2 agonist
51 | i | 0.95 | /
52 | i | 0.69 | -0.4
53 | i | 1 | -0.2
54 | i | 0.44 | -4.1
55 | i | 1.07 | -2.4
56 | i | 1.07 | 9.2*
57 | i | 1.33 | /
58 | i | 1.04 | 4.0
59 | i | 0.98 | -4.7
60 | i | 0.68 | -0.8

The list goes on.
nr | compound | PKD1 kinase inh | INS promoter inh | INS promoter inh cell count | RGS16-Gao HTS
61 | COC(=O)c1cc(CN2CCN(c3ccccc3C)CC2)ccc1O | -2.5 | -16.7 | 62.9 | 103.3
62 | COc1ccccc1N1CCN(C(=O)c2cnn3cccnc23)CC1 | -6.6 | -20.0 | 251.8 | 105.8
63 | CC(=O)Nc1nc(C)nc(-c2ccccc2)c1C(C)=O | -10.6 | 9.1 | 103.1 | 101.9
64 | CCOC(=O)c1sc(NC(=O)CSc2nccc(C)n2)c(C#N)c1C | 3.0 | -65.5 | 69.8 | 101.7
65 | COc1cc(C)c(S(=O)(=O)NC2CC(C)(C)NC(C)(C)C2)cc1C | 2.9 | 32.3 | 14.9 | 106.5
66 | COc1ccc(C)cc1S(=O)(=O)N(C)CC(N)=O | -3.5 | 62.5 | 79.7 | 98.7
67 | CSc1cccc(NC(=O)c2ccc(Cl)nc2)c1 | 0.5 | -13.9 | 108.8 | 98.3
68 | Cc1cc(NC(=O)Cc2cccs2)nn1CC(=O)NCc1ccco1 | -8.8 | -169.2 | 112.7 | 98.3
69 | O=C1CCCN1CCC1CCN(C(=S)Nc2ccc(F)cc2)CC1 | 0.9 | 16.7 | 139.8 | 102.3
70 | O=C(NN=C1CCCCCCC1)C(=O)NC1CCCCC1 | 2.5 | / | / | 101.5

nr | HSV augment | HSV augment primary fold | GALR2 agonist
61 | i | 0.96 | -0.6
62 | i | 0.8 | -5.0
63 | i | 1 | -0.2
64 | / | / | -1.0
65 | i | 0.92 | 0.3
66 | i | 0.9 | -2.1
67 | i | 0.92 | -1.8
68 | i | 0.92 | -1.4
69 | i | 0.89 | -0.5
70 | i | 1.07 | -2.2

Screening results: PubChem BioAssay, several laboratories
